# Assay outcomes deposited in PubChem BioAssay by several laboratories.
# Vif TR-FRET = inhibitors of Vif binding to APOBEC3G peptide, primary screen, biochemical, TR-FRET, GST-Vif 1-94, biotin-A3G peptide, dose response retest (AID 1117319); Virion infectivity factor (Human immunodeficiency virus type 1 group M subtype B (isolate …; TR-FRET GST-Vif / biotin-A3G peptide binding; higher % means a stronger effect; test concentration not given here; strong numbers were not always called active; inhibition, %, or IC50 in µM where a hit was titrated; 0.57% of 260,000 active;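 active means above the screen mean plus three standard deviations and confirmed in dose response; inconclusive means results disagree or hit not tested in dose response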;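 further: Vif residues 1-94 fused to GST binding biotinylated APOBEC3G peptide 110-148; 0% = full assay without inhibitor and 100% = GST in place of GST-Vif; retest series ran down from 100 µM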
# LANA-H2B inh = blockers of LANA interaction with H2A/H2B – biochemical, FP readout, HTS, primary screen; Protein LANA1 (Human herpesvirus 8 type P (isolate GK18)), Q9QR71; cell-free LANA-H2A/H2B peptide, fluorescence polarization; inhibition, % (concentration not given with the values); 0.6% of 320,000 active; AID 2629, 2010; in the data active means inhibition mostly above about 10%, no sharp cut-off; inactive means mostly below about 6.7%;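 further: stock transfer was 7.5 nL into about 10 µL; 0% = median of vehicle wells and 100% = median of positive control wells; one replicate is shown; the record names a cut of 25% in any replicate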
# Beta2AR agonist = beta2AR agonists driving receptor internalization, primary screen, cell-based, FAP fluorogen, flow cytometry. Beta-2 adrenergic receptor (Homo sapiens), P07550. Am2.2-beta2AR cells; reference of the scale not given here. response, % (test concentration not listed). 0.43% of 340,000 active. AID 504454, 2011;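 active means response above a set limit, near 3 SD of response in nonfluorescent compounds, cut at about 42% in these data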;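 further: stock transfer was 100 nL into about 11 µL; a reference agonist was the positive control; negative values mostly stem from fluorescent compounds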
# Target sequence (P07550 whole entry, looked up): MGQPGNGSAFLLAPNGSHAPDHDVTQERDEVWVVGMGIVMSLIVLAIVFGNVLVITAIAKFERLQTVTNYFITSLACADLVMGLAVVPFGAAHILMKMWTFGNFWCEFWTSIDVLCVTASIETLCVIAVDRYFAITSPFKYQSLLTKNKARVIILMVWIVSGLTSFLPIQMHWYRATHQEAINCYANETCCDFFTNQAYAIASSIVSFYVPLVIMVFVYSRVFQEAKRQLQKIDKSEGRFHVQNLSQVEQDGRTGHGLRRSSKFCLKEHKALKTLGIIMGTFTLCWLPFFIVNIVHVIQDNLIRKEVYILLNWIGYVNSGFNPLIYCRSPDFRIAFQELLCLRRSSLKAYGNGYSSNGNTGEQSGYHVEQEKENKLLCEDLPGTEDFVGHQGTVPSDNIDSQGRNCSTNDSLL
# Ecoli growth = E. coli growth inhibition, primary screen, OD600; Escherichia coli growth, 23 h; active compounds read low; OD600 absorbance (no concentration beside the values); 0.21% of 330,000 active; AID 1053175, 2014;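 active means OD600 absorbance below the run mean of sample wells minus 3.6 SD, in any replicate, cut at about 0.56 in these data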;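 further: stock transfer was 300 nL into about 60 µL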
# HNF4A DNA FP = change in binding of human HNF4A to DNA, primary screen, biochemical, fluorescence polarization, FITC-DNA. AID 1224865, 2016. Hepatocyte nuclear factor 4-alpha (Homo sapiens), P41235. 1 h. 0.3% of 360,000 active. activity change, % at 10 µM; in the data active means activity change above about 30%, passing the limit was not always enough;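 further: controls were the assay level and a saturating level of protein; the project sought stronger binding though the title names inhibitors; some compounds called inactive have numbers as strong as hits; positive values seem to mean higher polarization but the record does not say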
# A1 inh = caspase 3/7 activation in MEF A1-2A-BIM cells, primary screen, A1 inhibitor project, cell-based, luminescence, HTS. Caspase-Glo 3/7 luminescence, 3 h; percent of clofoctol response, vehicle zero. caspase activation, % (no concentration beside the values). 0.066% of 330,000 active. AID 2462, 2010;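 active means over half of replicate activation scores above 10%, or exactly half above 10 with the replicate mean above 10; inconclusive means replicate mean below 10 yet half the replicates above 10; inactive means over half of replicates below 10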;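 further: wells of about 30 µL received 50 nL stock; many hits fall short of the cut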
# UCH37 inh = inhibitors of human UCH37 deubiquitinase, primary screen, biochemical, Ub-AMC cleavage, fluorescence. AID 588478, 2011. purified proteasome/UCH37. 0.33% of 330,000 active. inhibition, % (no concentration beside the values);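 active means mean of two replicates above 20%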;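 further: 0% = compound-free wells with enzyme and 100% = wells lacking proteasome; stock transfer was 100 nL into about 20 µL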
# Target sequence (Q9Y5K5 whole entry, looked up): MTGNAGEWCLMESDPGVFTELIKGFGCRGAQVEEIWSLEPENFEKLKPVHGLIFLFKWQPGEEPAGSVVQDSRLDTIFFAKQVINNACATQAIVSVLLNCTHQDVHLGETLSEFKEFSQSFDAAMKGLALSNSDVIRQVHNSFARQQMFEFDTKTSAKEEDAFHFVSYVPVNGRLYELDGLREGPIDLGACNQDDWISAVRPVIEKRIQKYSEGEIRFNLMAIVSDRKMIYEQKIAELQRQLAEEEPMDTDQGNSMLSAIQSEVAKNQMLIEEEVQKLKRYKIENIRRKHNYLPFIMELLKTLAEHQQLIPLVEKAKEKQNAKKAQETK
#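 Test system – human UCH37 enzyme supplied as purified proteasome complex · Incubation – 30 min preincubation with enzyme, 25 min cleavage at room temperature · Detection – AMC fluorescence from Ub-AMC cleavage, excitation 355 nm, emission 460 nm · Benchmarks – no-proteasome wells (full inhibition) and compound-free wells (no inhibition)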
# Numbers without * were called inactive; ? = inconclusive; . = not tested or not shown; & = joins results of further samples.
SMILES,Vif TR-FRET,LANA-H2B inh,Beta2AR agonist,Ecoli growth,HNF4A DNA FP,A1 inh,UCH37 inh
COc1cccc(Oc2ccc(C(F)(F)F)cc2NC(=O)CCc2nc3ccccc3c(=O)[nH]2)c1,-1%,1.6,3,0.7,4.6,0.0,0.5
CC(=O)c1ccc(OC(=O)CCN2c3ccccc3Sc3ccccc32)cc1,4%,-1.3,6,0.73,-2.8,-0.6,2.1
CC[C@H](C)[C@H](NC(=O)[C@H](Cc1ccc(O)cc1)NC(=O)[C@@H](N)C(C)C)C(=O)N[C@@H](Cc1cnc[nH]1)C(=O)N1CCC[C@H]1C(=O)N[C@@H](Cc1ccccc1)C(=O)O,8%,-5.5,4,.,0.7,1.1,-0.5
O=C(CSc1nnc(-c2ccncc2)o1)N1CCCC1,14%,-2.0,1,0.72,1.7,-0.2,3.9
COc1ccc(-c2ccc(C(=O)C3CC3)cc2)cc1,-3%,3.8,-2,0.69,-0.8,-4.0,-12
CC(C(=O)N1CCN(C(=O)c2ccco2)CC1)N1C(=O)NC2(CCCCC2C)C1=O (stereo unspecified),-22%,-4.1,6,0.7,1.6,0.8,-0.2
CCOC(=O)N1CCN(c2c(N3CCN(c4ccc(F)cc4)CC3)c(=O)c2=O)CC1,-4%,0.6,-9,0.65,-0.9,0.0,3.4
Cc1c(C(=O)N2CCN(Cc3cccs3)CC2)oc2ccccc12,-5%,.,-8,0.64,-1.3,-1.0,3.2
CCN(C[C@H]1N[C@@](CC)(C(=O)OC)[C@H]2C(=O)N(C)C(=O)[C@@H]12)C(=O)Nc1ccc(OC)cc1,-1%,2.7,-4,0.68,1.7,-0.5,3.9
Cc1nc(SCC(=O)c2cccs2)c2oc3ccccc3c2n1,-34%,-0.3,6,0.67,-0.8,1.0,3.3
CCCCCCCNC(=O)c1cc(-c2ccncc2)nc2ccccc12,-3%,9.7,-4,0.71,1.6,0.3,2.9
O=C(NC1CCN(Cc2ccccc2)CC1)c1ccc2c(c1)[nH]c(=O)n2Cc1ccc(F)cc1,-4%,8.5,9,0.66,3.2,-0.1,1.1
Cc1ccc(S(=O)(=O)N2CCc3c2cc([N+](=O)[O-])cc3[N+](=O)[O-])cc1,-1%,-6.8,-2,0.64,-0.5,1.5,1.4
CC(C)(C)c1csc(NC(=O)CSc2nc3ccccc3c(=O)[nH]2)n1,16%,-7.6,1,0.68,-3.5,-0.1,0.9
Cc1ccc(O)c([C@H](CCN(C(C)C)C(C)C)c2ccccc2)c1,.,-0.3&-0.9,.,.,1.3&-2.6,-0.6&0.2,5.2&-1.2
CC(C)c1cc[n+](-c2nc([O-])sc2C=O)cc1,-4%,-8.5,2,0.77,-7.3,-0.1,5.3
CC(OC(=O)Cc1ccccc1[N+](=O)[O-])C(=O)NC(=O)NC1CCCCC1 (stereo unspecified),2%,4.6,-2,0.65,1.3,-1.5,1.6
CCOC(=O)c1sc(NC(=O)CN2CCN(c3ccc(OC)cc3)CC2)nc1C,-5%,-6.3,0,0.67,3.0,0.4,1.7
O=C(NCc1ccc(Cl)cc1)c1ccc(-n2cccn2)nc1,0%,5.5,-3,0.68,0.5,0.3,2.6
CCC(C)[C@H](NC(=O)N1c2ccccc2NC(=O)[C@@H]1C(C)C)C(=O)N[C@@H](Cc1ccccc1)C(=O)O (stereo partly specified),.,0.4,-2,0.79,-1.2,1.0,-0.7
CCCCN(CCCC)CP(=O)(c1ccccc1)c1ccccc1,6%,2.4,-2,0.69,-1.8,1.3,3.2
COc1ccccc1C(=O)NN1C(=O)C2C3C=CC(O3)C2C1=O (stereo unspecified),-1%,-7.3,-2,0.69,-1.5,0.0,-1.6
CN(C)c1nc(NCc2ccccc2)nc(N/N=C/c2ccccc2F)n1,-1%,1.8,.,.,.,-0.5,.
CCOC(=O)N1CCN(c2nc(C)cc(C(F)(F)F)n2)CC1,-2%,5.1,-1,0.7,-0.2,-0.1,-0.4
COc1ccc(C(=O)N/C(=C\c2ccco2)C(=O)NCCCn2ccnc2)cc1,.,-2.1,-10,0.7,-0.5,0.3,4.5
Cc1sc(NC(=O)CN(C)C2CCCCC2)nc1-c1ccc2c(c1)CCN2S(=O)(=O)c1ccccc1,1%,6.4,.,0.66,.,-0.5,1.8
CC(C)NC(=O)CSc1nnc(-c2ccc(C(C)(C)C)cc2)n1C,30%,3.3,10,0.63,-5.2,-0.1,1.0
CCC1(c2ccccc2)NC(=O)N(CC(=O)NC2CCCC2)C1=O (stereo unspecified),-1%,.,0,0.64,-1.1,.,0.1
Cc1ccc(CS(=O)(=O)c2ncc(Cl)c(C(=O)Nc3nnc(C(C)C)s3)n2)cc1,.,3.0,14,.,0.8,3.2,.
O=C(COCc1cc(-c2ccc3c(c2)OCO3)on1)N1CCCCC1,2%,-0.5,5,0.69,0.3,0.8,0.5
NNC(=O)c1n[nH]c2c1CC(C1CCCCC1)CC2 (stereo unspecified),.,2.8,26,0.71,-7.6,0.5,1.3
CN1CCN(c2ccc(S(=O)(=O)N3CCCCC3)cc2NC(=O)c2cccc([N+](=O)[O-])c2)CC1,-1%,-1.7,19,0.71,-5.3,0.2,5.9
Cn1nnnc1Sc1ncnc2scc(-c3ccc[nH]3)c12,.,-0.3,22,.,7.4,-0.4,1.0
Cc1cc(=O)oc2c1c(C)nn2-c1ccc(Br)cc1,7%,-5.6,3,0.71,-0.2,0.2,-0.5
CCC1(c2ccc(F)cc2)NC(=O)N(CC(=O)Nc2ccc3c(c2)OCCO3)C1=O (stereo unspecified),.,-4.3,2,0.7,1.8,-0.9,3.9
CSCC(=O)N1CCCC(CO)(CCCc2ccccc2)C1 (stereo unspecified),.,0.3,-10,0.66,4.6,0.0,1.5
COCCN1C(=O)N(c2cccc(C)c2)C(=O)C1CC(=O)Nc1ccc(F)cc1 (stereo unspecified),25%,1.7,-1,0.7,-1.8,0.3,3.0
O=C(CN1CCN(S(=O)(=O)c2ccc(Br)cc2)CC1)Nc1ccccc1F,-9%&7%,3.2,-1,0.75,0.1,-0.3,6.5
CCOC(=O)C1(Cc2ccccc2)CCN(Cc2ccc3cc(NC(C)=O)ccc3n2)CC1,4%,0.9,9,0.68,8.6,0.0,-19
CCC(C)(C)NC(=O)C1CCN(c2nc(OC)nc(OC)n2)CC1,1%,0.7,11,0.66,-1.3,0.8,2.1

# Of the compounds above, these contain bromine.
SMILES,Vif TR-FRET,LANA-H2B inh,Beta2AR agonist,Ecoli growth,HNF4A DNA FP,A1 inh,UCH37 inh
Cc1cc(=O)oc2c1c(C)nn2-c1ccc(Br)cc1,7%,-5.6,3,0.71,-0.2,0.2,-0.5
O=C(CN1CCN(S(=O)(=O)c2ccc(Br)cc2)CC1)Nc1ccccc1F,-9%&7%,3.2,-1,0.75,0.1,-0.3,6.5

# Other structures:
SMILES,Vif TR-FRET,LANA-H2B inh,Beta2AR agonist,Ecoli growth,HNF4A DNA FP,A1 inh,UCH37 inh
CSc1nc2ccc(S(N)(=O)=O)cc2s1,.,2.9,-8,0.67,-1.6,-0.3,4.1
Cc1cc(NC(=O)C2C3C(=O)N(Cc4ccc(Cl)cc4)C(C(=O)NCc4ccccc4)C34C=CC2(C)O4)no1 (stereo unspecified),4%,3.6,3,0.74,-1.0,-0.3,-0.3
O=C(c1ccccc1)c1ccc2ccccc2n1,4%,-0.1,-20,0.72,0.9,0.0,5.1
O=C(/C=C/N1CCN(Cc2ccccc2)CC1)C(F)(F)F,-3%,-4.2,-7,.,0.5,?,.
N#Cc1c(Cl)nc(-c2ccncc2)nc1-c1ccccc1,0%,-6.2,6,0.67,1.4,-0.4,3.3
O=C(NCN1C(=O)C2C3C=CC(C3)C2C1=O)Nc1nccs1 (stereo unspecified),12%,4.7,-5,0.71,0.9,-0.2,2.4
COc1ccc(-n2nnnc2SCC(=O)Nc2cccc(O)c2)cc1,-11%,0.4,-4,0.62,3.6,0.8,1.3
CCOC(=O)c1cc(-c2cccs2)nc2onc(C)c12,-4%,-3.8,-4,0.76,-2.5,-1.1,-239
CCC(=O)N1CCCc2cc(S(=O)(=O)N3CCN(c4ncccn4)CC3)ccc21,?,3.7,7,0.69,-4.6,.,2.1
CC(C)(C)Nc1nc2ccc([N+](=O)[O-])cc2o1,3%,-3.4,7,0.66,-1.5,-0.5,10
Cc1cccn2cc(CCNS(=O)(=O)c3cccc([N+](=O)[O-])c3)nc12,-1%,2.8,-1,0.72,0.9,-0.2,-1.0
COc1cc(-c2noc(C)c2/C=C/c2ccc(OC(C)=O)cc2)cc(OC)c1OC,.,5.3,4,.,5.9,1.3,-2.0
O=C(c1nc2ccccn2c1CNCC1OCCc2ccccc21)N1CCOCC1 (stereo unspecified),0%,-5.0,-10,0.68,0.0,0.9,4.3
O=c1c2c3nc4ccccc4nc3n(/N=C/c3ccco3)c2ncn1CCC1=CCCCC1,.,-2.5,-7,.,1.2,-0.1,.
CCOC(=O)Nc1ccc(OC)c([N+](=O)[O-])c1,2%,1.5,-2,0.66,-3.4,0.2,5.5
Cc1ccc(-c2cc(C(=O)OCn3nnc4ccccc4c3=O)c3ccccc3n2)cc1,-4%,0.8,2,0.7,0.2,0.4,-77
CS(=O)(=O)c1ccccc1-c1nc(-c2cccc(Cl)c2)no1,7%,-0.4,-10,0.65,-2.1,0.0,2.0
O=C1CC(=O)N(CCNc2ncc(C(F)(F)F)cc2Cl)C(=O)N1,3%,-2.7,4,0.72,17,0.9,2.1
Cc1nnc(SCC(=O)Nc2sccc2C#N)s1,3%,4.7,-1,0.72,-10,0.2,2.8
Cc1nc2ccccc2c(=O)n1/N=C/c1ccncc1,7%,-2.2,1,.,-2.1,0.2,.
C=CCn1cccc(C(=O)Nc2ccc(OCC)cc2)c1=O,-3%,3.0,-5,0.67,-1.0,-0.1,6.6
Cc1ccc2c(CSc3nncs3)cc(=O)oc2c1,3%,-0.9,3,0.66,1.9,-0.2,-1.0
CN(C)S(=O)(=O)c1cccc(NC(=S)Nc2ccc(Cl)cc2Cl)c1,5%,-5.0,7,0.62,0.9,0.0,1.8
C(=N\n1cnnc1)/c1ccc2ncccc2c1,69%,-0.6,-3,.,-1.3,-0.2,.
NC(=O)C1CC(=O)N(c2ccc(OCC(=O)Nc3cccc(C(F)(F)F)c3)cc2)C1 (stereo unspecified),4%,-6.4,3,0.67,0.8,-0.9,2.0
O=C(COc1ncnc2c(Cl)cc(Cl)cc12)N1CCN(S(=O)(=O)c2ccccc2)CC1,30%,5.0,5,0.72,-1.4,0.1,3.9
COCc1cc(C)n(CC(=O)OC)c(=O)c1C#N,2%,-8.9,8,0.69,-3.6,0.5,3.5
CS(=O)(=O)c1cnc(-c2cccnc2)nc1N,.,1.5,8,0.69,-1.3,0.4,0.0
Cc1cc(C)c2nc(N3CCOCC3)c(C#N)cc2c1,-1%,-0.4,-5,0.68,4.1,0.1,-21

# An excerpt from above in order of formula weight, rising.
SMILES,Vif TR-FRET,LANA-H2B inh,Beta2AR agonist,Ecoli growth,HNF4A DNA FP,A1 inh,UCH37 inh
CC(C)(C)Nc1nc2ccc([N+](=O)[O-])cc2o1,3%,-3.4,7,0.66,-1.5,-0.5,10
CN(C)c1nc(NCc2ccccc2)nc(N/N=C/c2ccccc2F)n1,-1%,1.8,.,.,.,-0.5,.
Cc1ccc(CS(=O)(=O)c2ncc(Cl)c(C(=O)Nc3nnc(C(C)C)s3)n2)cc1,.,3.0,14,.,0.8,3.2,.
